# Bioassay records (PubChem BioAssay)
# StopGo RLuc: FMDV 2A StopGo reporter, Renilla signal; HEK cells with a luciferase reporter of 2A StopGo recoding; Potency, µM (doses to about 57.5 µM), for inactives: top-dose signal change, negative = less light; 120,000 tested, 0.32% active; active means well fitted falling curve with a large enough effect; inconclusive means small, poorly fitted or top-dose-only effect; inactive means no such curve, though single readings can be large or run the other way; note: nearly all actives have a fitted effect of over 55% in size; overnight with compound
# StopGo FLuc: FMDV 2A StopGo reporter, firefly signal | HEK cells with a luciferase reporter of 2A StopGo recoding | Potency, µM (series often up to 57.5 µM), for the others: top-dose signal change, negative = less light | 120,000 tested, 0.23% active | AID 1745856; active = well fitted falling curve with a large enough effect; inconclusive = small, poorly fitted or top-dose-only effect; inactive = no such curve, though single readings can be large or run the other way; note: nearly all actives have a fitted effect of over 60% in size; overnight with compound
# * = called active by the depositor; ? = inconclusive; & = joins results of further samples; [ ] = remark or other dose. % is set by controls: 0 for no effect and ±100 for the full control effect; potency is the fitted concentration of half-maximal effect. These rows are one share of the data; count on the stated rates, not on these rows.
# Order of values: StopGo FLuc, StopGo RLuc
CCCCn1nc(C(=O)Nc2ccc3c(c2)CCC3)c2ccccc2c1=O
    115%[activator], 6%
Cc1cccc(C(=O)NC(=O)Nc2ccc(-n3nc(C(F)(F)F)cc3C(F)(F)F)cc2)c1
    -14%, 6%
Cc1c(C(=O)Nc2ccccc2Br)oc2ccc(S(=O)(=O)N3CCCCC3)cc12
    -10%, -11%
CCOc1cc(C2c3c(-c4ccc(Br)cc4)n[nH]c3C(=O)N2c2ccc(Cl)cc2)ccc1O (stereo not given)
    ?, ?
CCCSCCCNC(=O)CN1C(=O)COc2ccc(S(=O)(=O)N3CCCC3)cc21
    -13%, 3%
Cc1ccc(S(=O)(=O)Oc2c(C)occc2=O)cc1
    ?, -3%[1.06 µM]
O=C(NCc1ccccc1Cl)c1ccc(NC(=O)N2CCSc3ncccc32)cc1
    -2%, 8%
Cc1cc(OCC(=O)Nc2ncn[nH]2)c(C)c(C)c1Br
    -6%, -3%
COc1ccc(CNS(=O)(=O)c2cc3c(cc2Cl)N(C(C)=O)CCO3)cc1
    -14%, -6%
Cn1c(=O)c2c(nc(SCC(=O)Nc3ccccc3)n2CCCc2ccccc2)n(C)c1=O
    21%, 29%
O=S(=O)(NCCCn1ccc2ccccc21)c1ccccc1F
    -7%, 55%[activator]
CCCc1ccc(C(Nc2ccc3nnnn3n2)c2cccs2)cc1 (stereo not given)
    22%, 94%[activator]
CC(C)n1nc(C(=O)Nc2nc3c(s2)CN(C)CC3)c2ccccc2c1=O
    1%, 1%
Cc1cccc(Cn2c(CN3CCC(C(=O)NC(C)C)CC3)cc3ccccc32)c1
    -16%, -8%
CC(C)(C)C(=O)COc1cccc(S(C)(=O)=O)c1
    13%, -6%
COc1ccc(NC(=O)c2nnc(COCC(=O)NC3CCCCC3)s2)cc1
    62%[activator], 0%
Fc1cccc(CNCCN2CCCC2)c1
    0%, 14%
CC(=O)Nc1ccc(NC(=O)c2cc(-c3cccs3)nc3ccccc23)cc1
    53%[activator], 5%
O=C(NCCCN1CCN(c2ccccc2)CC1)c1ccc2nc(Cc3ccccc3)oc2c1
    ?, 2%
O=c1cc(CN2CCN(CCO)CC2)c2cc(O)c(-c3ccccc3)cc2o1
    10%&15%, -10%&21%
COC(=O)c1ccc(/C=C(/C#N)C(=O)Nc2cccc(OC)c2)cc1
    6%, 6%
Cn1nc(C(=O)Nc2ccccc2C(N)=O)c2ccccc2c1=O
    10%, 4%
CC1=C(C#N)C(c2cc(Cl)ccc2OC(F)F)C(C#N)=C(C)N1
    ?, ?
O=C(Nc1cccc2c1CCCC2)N1CCC2(CC1)OCCO2
    11%, -6%
CCOc1ccc(CCNC(=O)Cn2ncn3c(cc4sc(C)cc43)c2=O)cc1OCC
    -4%, -2%
COc1nc(C(=O)NCC(=O)NC(C)(C)C)cc2ccccc12
    46%[activator], -5%
CC(=O)N1CCc2cc(CNS(=O)(=O)c3ccc(C(C)(C)C)cc3)ccc21
    0%, 17%
CNS(=O)(=O)Cc1ccc2[nH]cc(CCN(C)C)c2c1
    18%, 25%
Cc1ccccc1C(=O)Nc1ccccc1OCc1cc(=O)n2ccccc2n1
    -21%, -4%
CCCN1C(=O)C(NC(=O)c2ccc(C(C)(C)C)cc2)(C(F)(F)F)C(C(=O)OC)=C1C (stereo not given)
    -7%, -5%
N#Cc1c(NC(=O)CN2CCNC(=O)C2)sc2c1CCCCC2
    0%, -4%
COc1ccc(NC(=O)c2cc(-c3cccnc3)nc3c(C)c(C)ccc23)c(OC)c1
    8%, 0%
O=C(c1cccs1)N(c1ccccc1)C1C=CS(=O)(=O)C1 (stereo not given)
    -8%, -10%
Cc1cc(Cl)ccc1OCC(=O)OCC(=O)c1ccc(Cl)cc1
    13%, 6%
CCOC(=O)c1cnc2ccc(OCC)cc2c1N1CCN(c2cccc(Cl)c2)CC1
    -6%, -9%
COc1ccc(CNc2nc3c(S(=O)(=O)c4ccccc4)nnn3c3ccc(Cl)cc23)cc1
    0%, -5%
Cc1ccc(C(=O)N(C)Cc2ccsc2)s1
    100%[activator], 17%
COc1ccc(OC)c(CNC(=O)c2nn(C)c3c2CSc2ccccc2-3)c1
    -12%, 15%
Cc1ccc(C)c(CNC(=O)c2ccc3c(c2)nc2n3CCCCC2)c1
    23%, -15%
Cc1ccc(NC(=O)CSc2cnc3cc(S(=O)(=O)N4CCCCC4)ccc3n2)cc1
    -2%, -5%
COc1ccccc1CNc1nccn(-c2ccccc2)c1=O
    0%, 9%
COc1cc(OC)c(NC(=O)C2CCCN(c3ccc4nncn4n3)C2)cc1Cl (stereo not given)
    4%, -1%
CCOC(=O)c1c(C)[nH]c(C)c1C(=O)Cn1cnc2ccccc2c1=O
    4%, 16%
CCCCCCCCCNC(=O)c1nccnc1N
    -10%, ?
CCCSc1ncc(Cl)c(C(=O)N(Cc2ccc(N(C)C)cc2)C2CCS(=O)(=O)C2)n1 (stereo not given)
    0%, 10%
Cc1ccc(OCCNC(=O)c2cc3ccccc3oc2=O)c(C)c1
    0%, 9%
COc1cccc(C(=O)n2nc(-c3cccnc3)nc2NCc2ccc(F)cc2)c1
    -19%, -12%
C#CCOc1c(Cl)cc(/C=C2\NC(=O)NC2=O)cc1OCC
    18%, 2%
COc1cc(/C=C/C(=O)Oc2ccc3ccc(=O)oc3c2)ccc1OS(=O)(=O)c1ccc(C)cc1
    -4%, -4%
CCc1ccc(CNC(=O)Cn2nc(-c3ccc(C)cc3)ccc2=O)cc1
    -4%, 6%
Cc1nn(-c2ncnc3nc[nH]c23)c2c1C(c1c(Cl)cccc1Cl)SCC(=O)N2 (stereo not given)
    1%, -5%
CCN1CCN(CC(=O)Nc2oc3ccccc3c(=O)c2-c2ccc(OC)c(OC)c2)CC1
    -3%, -12%
O=C(Cn1cnc(NC(=O)c2ccccc2)n1)NCc1ccccc1
    -9%, -4%
C=Cc1ccc(Cn2c(C)c(CNCc3ccccc3C)c(C(=O)O)c2C)cc1
    -15%, 21%
O=S(Cc1ccc(F)cc1)Cc1cccc(C(F)(F)F)c1 (stereo not given)
    -1%, -7%
Cc1ccc(NC(=O)Cn2cc(S(=O)(=O)N3CCCC3)c(S(=O)(=O)N3CCCC3)c2)c(C)c1
    58%[activator], 3%
Cc1cccc(NC(=O)c2cc(-c3ccco3)nc3ccccc23)n1
    0%, 33%[activator]
CCOc1ccccc1OCc1nn2c(C3COc4ccccc4O3)nnc2s1 (stereo not given)
    8%, 5%
O=C(O)CCC(NC(=O)C1(c2ccccc2)CCCC1)C(=O)O (stereo not given)
    -3%, -5%
CCOC(=O)c1c(NC(=O)c2ccc(S(=O)(=O)N(C)C)cc2)sc2c1CCN(C)C2
    -14%, 3%

# Next compounds:
# Order of values: StopGo FLuc, StopGo RLuc
O=C(CCC(=O)c1ccc2c(c1)CCC2)NC1CCCC1
    -5%, -4%[1.06 µM]
COCCOC(=O)/C(C#N)=C\c1ccc(O)c(OC)c1
    25%, 20%
Cc1cc(/C=C(\C#N)c2cccc(C(F)(F)F)c2)c(C)n1C
    33%[activator], 41%[activator]
O=S(=O)(NCc1ccc(S(=O)(=O)N2CCCCC2)cc1)c1ccc2c(c1)CCC2
    -11%, 35%[activator]
COc1cccc(CNC(=O)C(=O)Nc2ccc3nc4n(c(=O)c3c2)CCCCC4)c1
    -6%, -10%
CCCc1cc(=O)[nH]c(Nc2ccc(C)c(O)c2)n1
    10%, -10%
COC(=O)[C@H](C(C)C)N(CCc1cn(CC2CCCCC2)nn1)S(=O)(=O)c1ccc(F)cc1Br
    ?, -11%
COc1ccc(NC(=O)CSc2nc3nc(C)c(Cc4ccc(C)cc4)c(C)n3n2)cc1OC
    5%, -8%
CCC1CN(C(=O)N2CCC(C(=O)NCCc3ccc(OC)cc3OC)CC2)c2cc(C)ccc2O1 (stereo not given)
    -28%, -18%
CCc1ccc(C(=O)c2cn(CC(=O)Nc3ccc4c(c3)OCO4)c3ccc(OC)cc3c2=O)cc1
    -2%, -1%
Cc1ccc(NC(=O)CCc2ccc(C#N)cc2)nc1
    31%[activator], 31%[activator]
CC(C)C(=O)Oc1ccc2c(=O)c(-c3ccc(Cl)cc3)coc2c1
    184%[activator], -6%
CS(=O)(=O)N(Cc1ccccc1)c1ccc(C(=O)Nc2ccc(Cl)cc2)cc1
    ?, ?
Nc1cc(N)nc(SCCC(=O)Nc2ccccc2F)n1
    0%, 16%
COc1ccc(NC(=O)c2ccco2)cc1NC(=O)C(C)Oc1ccc(Cl)cc1Cl (stereo not given)
    ?, ?
CCOC(=O)c1c(NC(=O)COc2ccc(Br)cc2)sc2c1CCCC2
    -16%, -7%
COCCN(Cc1ccco1)C(=O)c1cc(S(C)(=O)=O)ccc1C
    -1%, -8%
Cc1cc(C)c2c(n1)sc1c(=O)n(-c3ccccc3C(F)(F)F)nnc12
    0%, -16%
O=C(NN=C1C2CC3CC(C2)CC1C3)c1ccc(Br)cc1
    0%, 21%
Cc1c(-c2nsc(NC(=O)c3cccc(Cl)c3)n2)nnn1-c1ccccc1C(F)(F)F
    ?, 13µM*
CCOc1ccc(S(=O)(=O)N2CC(=O)Nc3ccccc32)cc1
    23%, 17%
O=C(CCc1ncc(-c2ccc(F)cc2F)o1)NCc1ccc(OC(F)F)cc1
    21%, -4%
Cc1ccc(S(=O)(=O)Nc2ccc3nc(C)sc3c2)c(C)c1
    ?, 34%[activator]
CCOc1ccccc1C(=O)N(Cc1sccc1C)C1CCS(=O)(=O)C1 (stereo not given)
    -12%, -4%
COc1ccccc1C(=O)Nc1nc2n(n1)C(c1ccc(F)cc1)C=C(c1ccc(Cl)cc1)N2 (stereo not given)
    5%, -6%
Cc1cccc(NC(=O)COC(=O)c2n[nH]c(=O)c3ccccc23)c1
    13%, 0%
COc1cc(OC)cc(C(=O)NCC(=O)N2CCN(S(=O)(=O)c3ccc4ccccc4c3)CC2)c1
    -14%, -6%
N=C(N)c1ccnc(Sc2nc3ccccc3[nH]2)c1
    22%, 2%
CSc1ccc(/C=C2/N=C(c3cccc4ccccc34)OC2=O)cc1
    0%, 5%
Cc1cccc(/C=C/C(=O)c2cc3cc(Cl)ccc3oc2=O)c1
    8%, -2%

# Single values from the list:
# Result for CC(C)n1nc(C(=O)Nc2nc3c(s2)CN(C)CC3)c2ccccc2c1=O under StopGo FLuc: 1%
# Result for CCOC(=O)c1cnc2ccc(OCC)cc2c1N1CCN(c2cccc(Cl)c2)CC1 under StopGo FLuc: -6%

# The list continues:
# Order of values: StopGo FLuc, StopGo RLuc
Cc1cc(OCc2nnc(SC(=O)C3CC3)n2C)cc(C)c1Cl
    -5%, -4%
O=S(=O)(Nc1cccc2c1CCCC2)c1cc(F)ccc1F
    8%, 90%[activator]
COc1ccc(C(NC(=O)CNc2ccccc2C(=O)NC2CC2)C2CC2)cc1 (stereo not given)
    0%, -4%
COc1ccc(-c2csc3ncnc(Nc4cccc(F)c4)c23)cc1
    -3%, -9%
CCOC(=O)NC(CNC(=O)c1cc(C)ccc1C)CC(C)C (stereo not given)
    -11%, -2%
NC(=O)c1ccccc1N=Cc1ccc(O)cc1
    17%, 48%[activator]
O=Cc1cc(Cl)c(O)c(Cl)c1
    15%, 10%
Cc1cc(C)c(NC(=O)CN(C)C(=O)c2cc3cc(C)ccc3nc2C)c(C)c1
    -4%, -7%
Cc1cc(=O)oc2cc(OCC(=O)Oc3ccc4ccccc4c3)ccc12
    -2%, -15%
N#C/C(=C/c1ccccc1)C(=O)OCC(=O)N1CCc2ccccc2C1
    16%, -5%
CCOC(=O)c1nc2ccccc2nc1NCc1ccc2c(c1)OCO2
    -12%, -6%
CCC1CCc2c(sc(NC(=O)COCC(=O)O)c2C(=O)Nc2ccccc2C)C1 (stereo not given)
    25%, -1%
Cc1ccc(CN(C(=O)COc2ccc(F)cc2)C2CCS(=O)(=O)C2)o1 (stereo not given)
    18%, -8%
Cc1ccc(CNC(C)c2ccccc2)s1 (stereo not given)
    2%&0%, 0%&-8%
CC(C)Oc1ccc(C(=O)O)cc1Br
    -4%, -14%
CCCc1cc(=O)oc2c(C)c(OC(C)C(=O)NCc3ccccn3)ccc12 (stereo not given)
    -2%, -8%
COC(=O)C1=CN(Cc2ccc(F)cc2)C=C(C(=O)OC)C1c1ccccc1OCc1ccccc1
    -13%, -5%
COCCCNC(=O)CSc1nc2c(sc3ccccc32)c(=O)n1CCc1ccc(OC)c(OC)c1
    -6%, -5%
CC(C(=O)Nc1ccc(F)cc1Cl)N1CCN(c2ccc(O)cc2)CC1 (stereo not given)
    6%, 2%
Cc1ccc2c(c1)c(/C=C/c1cc[n+](C)cc1)c(C)n2C
    ?, 8.9µM*
Cc1ccc(NS(=O)(=O)c2c(C(=O)N3CCCCCC3)c(C)n(C)c2C)cc1F
    -16%, 199%[activator]
Cc1cc(C(=O)OCC(=O)c2ccccc2)c2ccccc2n1
    0%, 19%
O=C(CSc1ccc(Cl)cc1)NNC(=O)C1CCCc2ccccc21 (stereo not given)
    7%, 8%

# Filtered by structure: those above containing a cyano group.
# Order of values: StopGo FLuc, StopGo RLuc
COC(=O)c1ccc(/C=C(/C#N)C(=O)Nc2cccc(OC)c2)cc1
    6%, 6%
CC1=C(C#N)C(c2cc(Cl)ccc2OC(F)F)C(C#N)=C(C)N1
    ?, ?
N#Cc1c(NC(=O)CN2CCNC(=O)C2)sc2c1CCCCC2
    0%, -4%
COCCOC(=O)/C(C#N)=C\c1ccc(O)c(OC)c1
    25%, 20%
Cc1cc(/C=C(\C#N)c2cccc(C(F)(F)F)c2)c(C)n1C
    33%[activator], 41%[activator]
Cc1ccc(NC(=O)CCc2ccc(C#N)cc2)nc1
    31%[activator], 31%[activator]
N#C/C(=C/c1ccccc1)C(=O)OCC(=O)N1CCc2ccccc2C1
    16%, -5%
